Bioassay records as filed in PubChem.
ID4 binder: binds human ID4 protein on microarray. calls only. AID 624137. 31,000 compounds, 1.2% hits. P47928. small molecule microarray, Flag-ID4 binding, fluorescence F/B;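 active = spot signal over background at p below 0.07 in all four prints; compounds were printed on slides so no solution concentration is given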;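 also: a binder raises fluorescence above local background on the spot; about 2 pmol printed per array spot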
Target sequence (P47928 whole entry, looked up): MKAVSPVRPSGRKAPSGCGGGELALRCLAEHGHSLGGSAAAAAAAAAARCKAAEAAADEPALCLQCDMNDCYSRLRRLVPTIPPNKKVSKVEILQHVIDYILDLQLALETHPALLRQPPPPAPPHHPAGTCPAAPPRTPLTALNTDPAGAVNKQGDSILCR
Calls only; i = inactive. The list is partial; the hit share may differ from the screen's.

SMILES	ID4 binder
COc1ccc(NC(=O)CSc2nnc(-c3ccncc3)o2)cc1	i
CS(=O)(=O)N(CC(=O)Nc1c(F)cccc1F)C1CCCCC1	i
C[C@H]1CN([C@@H](C)CO)C(=O)c2cc(C#CCN(C)C)cnc2O[C@H]1CN(C)Cc1ccccc1F	i
CC(C)N(C(=O)N1CCN(c2ccnc3cc(Cl)ccc23)CC1)C(C)C	i
C[C@H]1CN([C@@H](C)CO)C(=O)c2cccc(N(C)C)c2O[C@@H]1CN(C)Cc1ccncc1	i
COCC#Cc1ccc2c(c1)O[C@H](CN(C)Cc1ccccc1)[C@H](C)CN([C@H](C)CO)S2(=O)=O	i
CC(=O)Nc1ccc(NC(=O)CN(C)S(=O)(=O)c2ccc(Cl)cc2)cc1	i
CO[C@H](CN(C)C(=O)Nc1ccc(C(F)(F)F)cc1)[C@H](C)CN(Cc1ccccc1Cl)[C@H](C)CO	i
O=C(Nc1ccc(I)cc1C(=O)NCc1ccco1)c1ccco1	i
C[C@H](CO)N1C[C@H](C)[C@@H](CN(C)C(=O)c2ccccc2)Oc2ncc(C#Cc3ccccc3)cc2C1=O	i
CCCc1c(O)nc(SC2CC(=O)N(c3ccc(Oc4ccccc4)cc3)C2=O)[nH]c1=O (centres undefined)	i
COCC#Cc1ccc2c(c1)O[C@@H](CN(C)C(=O)c1ccccc1F)[C@H](C)CN([C@H](C)CO)S2(=O)=O	i
Cc1cccc(C)c1NC(=O)C1CC=CCC1C(=O)O (centres undefined)	i
Cc1ccc(-c2nc3ccccc3[nH]2)cc1NC(=O)COc1cccc([N+](=O)[O-])c1	i
COc1ccccc1NC(=O)COc1ccc(CO)cc1Cl	i
C[C@@H]1CN([C@H](C)CO)C(=O)c2cc(C#Cc3ccccn3)cnc2O[C@@H]1CN(C)C(=O)CCN1CCCCC1	i
NCCCCCCNS(=O)(=O)c1cccc2c(Cl)cccc12	i
COc1ccc(C)cc1S(=O)(=O)N(CC(=O)O)c1ccc(C)cc1	i
O=C(CSc1nnc(-c2ccccc2[N+](=O)[O-])o1)c1cccs1	i
CCOC(=O)c1cnc(SCC(=O)Nc2ccc(F)c(F)c2F)nc1N	i
O=C(CNS(=O)(=O)c1ccc(Br)cc1)Nc1cccc2ccccc12	i
CC(C)C#Cc1cnc2c(c1)C(=O)N([C@@H](C)CO)C[C@H](C)[C@H](CN(C)C(=O)CCN1CCCCC1)O2	i
CC(C)CC#Cc1cnc2c(c1)C(=O)N([C@@H](C)CO)C[C@H](C)[C@H](CN(C)C(=O)c1cccc(F)c1)O2	i
C[C@@H]1CN([C@@H](C)CO)S(=O)(=O)c2ccc(-c3cncnc3)cc2O[C@@H]1CN(C)Cc1ccc(Oc2ccccc2)cc1	i
CC(C)C#Cc1cnc2c(c1)C(=O)N([C@@H](C)CO)C[C@H](C)[C@H](CN(C)Cc1cccc(F)c1)O2	i

Molecules shown so far that contain an aryl thioether with sulfur outside any ring (4):
SMILES	ID4 binder
COc1ccc(NC(=O)CSc2nnc(-c3ccncc3)o2)cc1	i
CCCc1c(O)nc(SC2CC(=O)N(c3ccc(Oc4ccccc4)cc3)C2=O)[nH]c1=O (centres undefined)	i
O=C(CSc1nnc(-c2ccccc2[N+](=O)[O-])o1)c1cccs1	i
CCOC(=O)c1cnc(SCC(=O)Nc2ccc(F)c(F)c2F)nc1N	i

(cont.)
SMILES	ID4 binder
COC(=O)c1ccccc1NC(=O)c1ccc(NC(=O)C(C)Oc2ccccc2)cc1 (centres undefined)	i
COC(=O)c1ccc(NC(=O)CN(c2ccc(F)c(Cl)c2)S(C)(=O)=O)cc1	i
Cc1cccc(OCC(=O)Nc2ccc(Cl)c(-c3nc4ccccc4o3)c2)c1	i
CNC(=O)CN(c1cc(Cl)c(Cl)cc1Cl)S(C)(=O)=O	i
CCC(=O)N(C)C[C@@H]1Oc2ncc(-c3ccc(F)cc3)cc2C(=O)N([C@@H](C)CO)C[C@H]1C	i
Cc1ccc([N+](=O)[O-])cc1NC(=O)C1CCCN(S(=O)(=O)c2ccc(F)cc2)C1 (centres undefined)	i
Cc1nn(Cc2ccc(F)cc2)c(C)c1NC(=O)c1cc(-c2cccnc2)nc2c(Cl)cccc12	i
Cc1cc(=O)[nH]c(SCCCOc2ccc([N+](=O)[O-])cc2)n1	i
O=C(CSc1ncn(-c2ccccc2)n1)Nc1ccccc1Br	i
C[C@H](CO)N1C[C@H](C)[C@H](CN(C)C(=O)Nc2ccc(F)cc2)Oc2ncc(Br)cc2C1=O	i
Cc1ccccc1NS(=O)(=O)c1ccc(Cl)c(C(=O)Nc2ccccc2C(=O)O)c1	i
N#C[C@H]1[C@@H](c2ccc(C3=CCCC3)cc2)[C@@H](CO)N1C(=O)C1CCOCC1	i
O=C(COc1ccccc1[N+](=O)[O-])Nc1cc(-c2nc3ccccc3s2)c(Cl)cc1Cl	i
C[C@@H]1CN([C@@H](C)CO)C(=O)c2cc(-c3cccnc3)cnc2O[C@H]1CN(C)S(C)(=O)=O	i
O=C(O)CCC(=O)N1N=C(c2c(-c3ccccc3)c3cc(Cl)ccc3[nH]c2=O)CC1c1ccccc1 (centres undefined)	i
COc1ccccc1NC(=O)CSc1nnnn1-c1c(C)cccc1C	i
O=C(N[C@@H]1CC[C@H](CC(=O)N2CCCCC2)O[C@H]1CO)c1cccc(F)c1	i
Cc1ccc(C)c(NC(=O)CNS(=O)(=O)c2ccccc2)c1	i
C[C@@H]1CN([C@H](C)CO)C(=O)c2cc(C#CCN(C)C)cnc2O[C@@H]1CN(C)C	i
COC(=O)N(C)C[C@@H]1OCc2ccccc2-c2c(n(C)c3ccccc23)C(=O)N([C@@H](C)CO)C[C@@H]1C	i
Cc1ccc(C(C)C)c(OCC(=O)Nc2ccccc2N2CCN(C)CC2)c1	i
CC(=O)N[C@H]1CC[C@H](CC(=O)NCC2CCCCC2)O[C@H]1CO	i
C[C@H](NC(=O)C[C@H]1CC[C@@H](NC(=O)C2CCC2)[C@@H](CO)O1)c1ccccc1	i
N#Cc1ccccc1Sc1ccccc1C(=O)Nc1cccc(CCc2ccccn2)c1	i
O=C(C[C@@H]1C[C@@H]2c3cc(NC(=O)Nc4ccc(F)cc4)ccc3O[C@@H]2[C@@H](CO)O1)NCC1CC1	i

Compounds above with a COOH group, in the order listed:
SMILES	ID4 binder
Cc1cccc(C)c1NC(=O)C1CC=CCC1C(=O)O (centres undefined)	i
COc1ccc(C)cc1S(=O)(=O)N(CC(=O)O)c1ccc(C)cc1	i
Cc1ccccc1NS(=O)(=O)c1ccc(Cl)c(C(=O)Nc2ccccc2C(=O)O)c1	i
O=C(O)CCC(=O)N1N=C(c2c(-c3ccccc3)c3cc(Cl)ccc3[nH]c2=O)CC1c1ccccc1 (centres undefined)	i

Going on with the list.
SMILES	ID4 binder
N#C[C@H]1[C@@H](c2ccccc2)[C@@H](CO)N1C(=O)c1ccc2c(c1)OCO2	i
O=C1O[C@@H](c2ccccc2)[C@@H](c2ccccc2)N2[C@@H](c3ccc(O)cc3)[C@]3(C(=O)Nc4ccccc43)[C@@H](C(=O)N3CCN(c4ncccn4)CC3)[C@H]12	i
CC1=CC(=O)CC2[C@@]1(C)CC[C@@H](C)[C@]2(C)CCC(C)CC(=O)O (some centres undefined)	i
CC(C)CC#Cc1ccc2c(c1)O[C@@H](CN(C)Cc1ccc3c(c1)OCO3)[C@H](C)CN([C@H](C)CO)S2(=O)=O	i
COc1ccc(S(=O)(=O)NCc2ccco2)cc1[N+](=O)[O-]	i
NS(=O)(=O)c1ccc(N(S(=O)(=O)c2ccccc2)S(=O)(=O)c2ccccc2)cc1	i
C[C@@H]1CN([C@H](C)CO)S(=O)(=O)c2ccc(-c3ccccc3F)cc2O[C@H]1CN(C)Cc1cccnc1	i
CC(C)(C)c1ccc(OCC(=O)NCc2cccnc2)c(Br)c1	i
CC(C)C#Cc1cnc2c(c1)C(=O)N([C@H](C)CO)C[C@@H](C)[C@H](CN(C)Cc1cccc(F)c1)O2	i
C[C@H]1CN([C@@H](C)CO)C(=O)CCCn2nncc2CO[C@@H]1CN(C)CC1CC1	i
COC(=O)C(CC#Cc1ccc2c(c1)[C@]1(C(=O)N2)[C@H](c2ccc(O)cc2)N2[C@H](c3ccccc3)[C@H](c3ccccc3)OC(=O)[C@H]2[C@@H]1C(=O)N1CCCCCCC1)C(=O)OC	i
COc1ccc(C(=O)c2oc3ccccc3c2NC(=O)COc2ccc(F)cc2)cc1	i
CNC[C@H]1Oc2ncc(C#CC3CCCCC3)cc2C(=O)N([C@@H](C)CO)C[C@H]1C	i
COC(=O)c1ccc(C)c(NC(=O)CN(c2ccc(Cl)c(Cl)c2)S(C)(=O)=O)c1	i
COc1ccc(NC(=O)CSc2nnc3c4c5c(sc4nc(-c4ccccc4)n23)CCC5)cc1	i
C[C@@H]1CN([C@H](C)CO)C(=O)c2cc(C#CCN(C)C)cnc2O[C@@H]1CN(C)Cc1ccc(-c2ccccc2)cc1	i
O=C(CC1Nc2cccc3cccc(c23)NC1=O)Nc1ccc([N+](=O)[O-])cc1 (centres undefined)	i
CN(CC(=O)Nc1ccc(Oc2ccccc2)cc1)S(=O)(=O)c1ccccc1	i
COc1cc(COc2cc(N)c(Cl)cc2C(=O)CCC2CCN(CCNS(C)(=O)=O)CC2)cc(OC)c1	i
Cc1ccc2oc(-c3cccc(NC(=O)COc4ccc(Cl)cc4)c3C)nc2c1	i
CO[C@H](CN(C)Cc1cc(F)ccc1F)[C@@H](C)CN([C@H](C)CO)S(=O)(=O)c1ccc(F)cc1	i
CCc1nnc(Cn2nnc3c(=O)[nH]c(C(=O)Nc4ccc(C)cc4)nc32)s1	i
CC1CCN(S(=O)(=O)c2ccc(NC(=O)CN3CCOCC3)cc2)CC1	i
COc1ccc(C)cc1NC(=O)CSc1n[nH]c(-c2ccc(Cl)cc2)n1	i
C[C@H]1CN([C@@H](C)CO)S(=O)(=O)c2ccc(-c3ccc(C#N)cc3)cc2O[C@H]1CN(C)CC1CC1	i

Of the compounds above, four have bromine:
SMILES	ID4 binder
O=C(CNS(=O)(=O)c1ccc(Br)cc1)Nc1cccc2ccccc12	i
O=C(CSc1ncn(-c2ccccc2)n1)Nc1ccccc1Br	i
C[C@H](CO)N1C[C@H](C)[C@H](CN(C)C(=O)Nc2ccc(F)cc2)Oc2ncc(Br)cc2C1=O	i
CC(C)(C)c1ccc(OCC(=O)NCc2cccnc2)c(Br)c1	i

Later entries
SMILES	ID4 binder
CNC[C@@H]1Oc2ncc(C3=CCCC3)cc2C(=O)N([C@@H](C)CO)C[C@@H]1C	i
CC(C)NC(=O)N[C@H]1CC[C@H](CC(=O)NCCCN(C)C)O[C@@H]1CO	i
COc1ccc(NC(=O)CN(C)S(=O)(=O)c2ccc(C)cc2)c(OC)c1	i
COc1ccccc1NC(=O)CSc1ncccn1	i
COc1cccc(NC(=O)C(C)N(c2cc(C)cc(C)c2)S(C)(=O)=O)c1 (centres undefined)	i
C[C@@H]1CN([C@@H](C)CO)C(=O)c2cc(-c3ccccc3F)cnc2O[C@H]1CN(C)Cc1ccccc1F	i
Cc1cccc(-n2c(SCC(=O)Nc3ccc(C)cc3Br)nnc2-c2ccncc2)c1	i
CNC[C@@H]1Oc2ncc(-c3cccc(C(F)(F)F)c3)cc2C(=O)N([C@H](C)CO)C[C@@H]1C	i
COc1cc2c(cc1OC)CN(C(=O)CSc1ncnc3sc4c(c13)CCC(C)C4)CC2 (centres undefined)	i
C[C@H](CO)N1C[C@H](C)[C@@H](CN(C)C(=O)c2cccc(F)c2)Oc2ncc(C3=CCCCC3)cc2C1=O	i
Nc1nc(SCC(=O)N2CCC(c3noc4ccc(F)cc34)CC2)n[nH]1	i
CCN(CC(=O)Nc1ccc(Br)cc1)S(=O)(=O)c1ccc(Cl)cc1	i
CN(CC(=O)Nc1ccccc1C(N)=O)S(=O)(=O)c1ccc(Br)cc1	i
O=C(C[C@@H]1C[C@H]2c3cc(NC(=O)NC4CCCCC4)ccc3O[C@H]2[C@H](CO)O1)NCc1cccnc1	i
CC(C)COC(=O)N(C)C[C@@H]1OCc2ccccc2-c2ccccc2C(=O)N([C@@H](C)CO)C[C@H]1C	i
CCc1ccccc1NC(=O)Cn1nc([N+](=O)[O-])cc1C	i
CCCN(C)C[C@@H]1Oc2ncc(-c3ccccc3F)cc2C(=O)N([C@@H](C)CO)C[C@@H]1C	i
COCC(=O)N(C)C[C@@H]1Oc2ncc(Br)cc2C(=O)N([C@H](C)CO)C[C@H]1C	i
CO[C@@H](CN(C)Cc1nccs1)[C@H](C)CN([C@@H](C)CO)S(=O)(=O)c1ccc(C)cc1	i
CC(C)NC(=O)N(C)C[C@@H]1Oc2ncc(C#CC3(O)CCCC3)cc2C(=O)N([C@@H](C)CO)C[C@H]1C	i
CCCNC(=O)N[C@H]1C=C[C@@H](CC(=O)NCCc2ccccc2)O[C@@H]1CO	i
CCC(=O)N(C)C[C@@H]1Oc2ncc(-c3ccc(C)cc3)cc2C(=O)N([C@@H](C)CO)C[C@@H]1C	i
COc1ccc(NC(=O)C(C)N(c2ccc(C)cc2)S(C)(=O)=O)c(OC)c1 (centres undefined)	i
Cc1ccc(-c2cnc3c(c2)C(=O)N([C@H](C)CO)C[C@H](C)[C@@H](CN(C)CC2CCCC2)O3)cc1	i
CC(C)NC(=O)N[C@H]1C=C[C@@H](CC(=O)NCCCN(C)C)O[C@H]1CO	i

Laid out differently: entries from further up.
SMILES | ID4 binder
CNC[C@@H]1Oc2ncc(-c3cccc(C(F)(F)F)c3)cc2C(=O)N([C@H](C)CO)C[C@@H]1C | i
COc1cc2c(cc1OC)CN(C(=O)CSc1ncnc3sc4c(c13)CCC(C)C4)CC2 (centres undefined) | i

Next records follow.
SMILES	ID4 binder
COCC#Cc1cnc2c(c1)C(=O)N([C@@H](C)CO)C[C@H](C)[C@@H](CN(C)Cc1ccc(F)cc1)O2	i
CC1(C)CC(=O)c2c(O)cc(OCC(=O)c3ccc(-c4ccccc4)cc3)cc2O1	i
C[C@@H]1CN([C@@H](C)CO)C(=O)c2cc(C#CC3CC3)cnc2O[C@H]1CN(C)C(=O)c1ccc(F)cc1	i
C[C@H](CO)N1C[C@H](C)[C@H](CN(C)C(=O)C2CCC2)Oc2ncc(-c3ccc(F)cc3)cc2C1=O	i
COc1ccc(C#Cc2ccc3c(c2)O[C@H](CN(C)C(=O)NC2CCCCC2)[C@@H](C)CN([C@@H](C)CO)S3(=O)=O)cc1	i
COc1ccc(S(=O)(=O)N(C)CC(=O)Nc2cccc(F)c2)cc1Cl	i
